Compound activity as filed in PubChem BioAssay.
RGS16-Gao HTS = modulators of RGS16 binding to Galphao, primary screen, biochemical, human proteins, multiplexed bead flow cytometry; bead-based flow cytometry RGS16-Galphao binding, fluorescence; actives lie on both sides; binding response (% of control), % at 10 µM; hit rate 0.38% among 220,000;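 active = below 25% or above 175%, edge rows of some plates excepted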;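 note: Galphao activated by GDP with aluminum fluoride before binding; 100% = wells without compound and 0% = beads without RGS; some results beyond the cut were filed as inactive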
HSV augment = enhancers of HSV replication in host cells, fold increase, host cell viability; HSV replication augmentation in cells; hit rate 0.005% among 220,000; maximum fold increase;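 active = peak rise of 1.5-fold or more in the series; inconclusive = self-fluorescent or not available for retest; tested in PC3 cells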;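 note: first round at 10 µM; read as green reporter fluorescence; hits show the peak of a series up to 25 µM; 1 = signal of infected wells without compound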
PKD1 inh = inhibitors of human PKD1 kinase, biochemical, fluorescence polarization; hit rate 0.056% among 200,000; AID 797, 2007; inhibition, %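 (about 10 µM by stock and volumes)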; PKD1 kinase fluorescence polarization assay; Serine/threonine-protein kinase D1 (Homo sapiens), Q15139;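 active = inhibition of 50% or more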;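 note: controls were vehicle for no effect and a reference inhibitor for full effect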
Target sequence (Q15139 whole entry, looked up): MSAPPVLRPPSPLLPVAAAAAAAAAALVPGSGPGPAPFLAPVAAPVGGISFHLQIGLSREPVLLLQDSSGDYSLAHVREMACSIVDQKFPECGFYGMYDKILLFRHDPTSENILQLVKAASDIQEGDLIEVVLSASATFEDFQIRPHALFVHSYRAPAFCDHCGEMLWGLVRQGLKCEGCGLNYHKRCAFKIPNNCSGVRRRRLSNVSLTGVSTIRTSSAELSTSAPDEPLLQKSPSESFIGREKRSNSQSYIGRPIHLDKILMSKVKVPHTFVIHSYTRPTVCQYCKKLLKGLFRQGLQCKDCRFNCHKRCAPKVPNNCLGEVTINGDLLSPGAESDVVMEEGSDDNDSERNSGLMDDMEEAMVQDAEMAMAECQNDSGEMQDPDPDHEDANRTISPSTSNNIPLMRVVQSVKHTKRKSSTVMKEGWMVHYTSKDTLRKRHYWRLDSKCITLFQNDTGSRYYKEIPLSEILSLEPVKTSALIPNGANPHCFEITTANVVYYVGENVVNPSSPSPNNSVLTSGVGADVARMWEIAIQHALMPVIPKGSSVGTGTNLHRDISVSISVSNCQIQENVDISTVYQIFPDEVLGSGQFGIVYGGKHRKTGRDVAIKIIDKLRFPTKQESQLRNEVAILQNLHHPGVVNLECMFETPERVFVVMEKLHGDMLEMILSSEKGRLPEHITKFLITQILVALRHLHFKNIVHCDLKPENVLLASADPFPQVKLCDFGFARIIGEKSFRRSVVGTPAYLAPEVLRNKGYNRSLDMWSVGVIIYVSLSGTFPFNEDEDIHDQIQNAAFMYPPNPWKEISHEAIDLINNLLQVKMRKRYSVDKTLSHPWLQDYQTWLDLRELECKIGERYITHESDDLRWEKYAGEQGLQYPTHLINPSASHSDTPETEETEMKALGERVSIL
INS promoter inh = inhibitors of insulin promoter-driven GFP, primary screen, imaging, TRM-6 cells (human fetal islet line), eGFP reporter, cell count. reporter expression induced with tamoxifen. inhibition, % at 2 µM. hit rate 0.9% among 130,000;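 active = inhibition above the mean plus 3 SD, with well images judged a real hit on visual review, cut at about 60% in these data, passing the limit was not always enough; inconclusive = inhibition over the cutoff but images rejected on review; inactive = inhibition not above the cutoff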
GALR2 ag = GALR2 receptor agonists, primary screen, cell-based | hit rate 0.48% among 140,000 | AID 803, 2007 | Galanin receptor type 2 (Homo sapiens), O43603 | GALR2-expressing cells, agonist activation read-out | activation, %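 (tested at 5 µM)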;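 active = above mean plus 3 SD of all compounds, about 5% in these data, not always enough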;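 note: 0% = vehicle buffer wells and 100% = reference agonist at full effect; tested in CHO reporter cells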
INS promoter inh cell count = recorded beside INS promoter inh, whose call it bears; normalized cell count, %; measured here: cell count, toxicity; reference of the scale not given here;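 cells exposed to compound for 48 h; stained nuclei by imaging scaled within each plate; lower means fewer cells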
HSV augment primary fold = recorded beside HSV augment, whose call it bears; fold increase; compound at 10 µM; measured here: primary screen fold increase 10 uM; tested in PC3 cells;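 GFP signal in the first replicate; 1 = infected wells without compound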
* = called active by the depositor; i = inactive; ? = inconclusive; · = no result given.

The first 6 entries as a preview:
Values in the order: INS promoter inh cell count, INS promoter inh, HSV augment primary fold, PKD1 inh, RGS16-Gao HTS, HSV augment, GALR2 ag
#1 CCC(C)(C(=O)NC1CCCCC1)N(C(=O)CNC(C)=O)c1c(C)n(C)n(-c2ccccc2)c1=O (centres undefined)
 : 24, 7, 0.9, 0, 101, i, 0.3
#2 Cc1ccc(C(=O)Nc2ccc(C)c(S(=O)(=O)Nc3ccccc3Cl)c2)s1
 : 80, 36, 1.2, 0, 66, i, -2.0
#3 COC(=O)C1CCN(c2nc3ccccc3nc2C(C#N)C(=O)NCCc2ccccc2)CC1 (centres undefined)
 : ·, ·, 0.94, -12, 101, i, -1.3
#4 CC(=O)Nc1ccc(C(=O)OCC(=O)NC(=O)NC2CCCCC2)cc1
 : ·, ·, 0.99, -10, 108, i, -1.0
#5 CN1CCN(Cc2nc3ccccc3c(=O)n2CC#N)CC1
 : 81, -13, 1, 0, 101, i, ·
#6 O=C(NCc1ccccn1)c1ccc(Cn2c(=S)[nH]c3ccc(Br)cc3c2=O)cc1
 : ·, ·, 1, -3, 100, i, ·

This part in full, previewed entries included:
Values in the order: INS promoter inh cell count, INS promoter inh, HSV augment primary fold, PKD1 inh, RGS16-Gao HTS, HSV augment, GALR2 ag
#1 CCC(C)(C(=O)NC1CCCCC1)N(C(=O)CNC(C)=O)c1c(C)n(C)n(-c2ccccc2)c1=O (centres undefined)
 : 24, 7, 0.9, 0, 101, i, 0.3
#2 Cc1ccc(C(=O)Nc2ccc(C)c(S(=O)(=O)Nc3ccccc3Cl)c2)s1
 : 80, 36, 1.2, 0, 66, i, -2.0
#3 COC(=O)C1CCN(c2nc3ccccc3nc2C(C#N)C(=O)NCCc2ccccc2)CC1 (centres undefined)
 : ·, ·, 0.94, -12, 101, i, -1.3
#4 CC(=O)Nc1ccc(C(=O)OCC(=O)NC(=O)NC2CCCCC2)cc1
 : ·, ·, 0.99, -10, 108, i, -1.0
#5 CN1CCN(Cc2nc3ccccc3c(=O)n2CC#N)CC1
 : 81, -13, 1, 0, 101, i, ·
#6 O=C(NCc1ccccn1)c1ccc(Cn2c(=S)[nH]c3ccc(Br)cc3c2=O)cc1
 : ·, ·, 1, -3, 100, i, ·
#7 C=CCNC(=S)N1CCN(S(=O)(=O)c2ccc(C)cc2)CC1
 : ·, ·, 0.91, ·, 93, i, ·
#8 Fc1ccc(-c2cc(C(F)(F)F)nc(N3CCCCC3)n2)cc1
 : ·, ·, 1.1, -9, 94, i, -1.4
#9 Cc1cccc(N2C(=O)CSC2c2cccnc2)c1 (centres undefined)
 : ·, ·, 0.78, -1, 101, i, -0.1
#10 CCOC(=O)c1sc(N=NC2=C(O)CCCC2=O)c(C(=O)OCC)c1C
 : ·, ·, 0.96, -1, 96, i, ·
#11 CCOC(=O)c1c(C)nc2ccc(C)cn12
 : 100, 7, 1, 0, 67, i, -0.6
#12 O=C(CSc1nnnn1Cc1ccccc1)Nc1ccc2c(c1)OCO2
 : 89, -61, 0.97, -12, 99, i, -2.1
#13 Nc1c(-c2cccs2)cnn1-c1nc(-c2ccc(Cl)cc2Cl)cs1
 : 134, -163, 1, -6, 116, i, -3.1
#14 S=C1NC2(CCCC2)N=C1c1ccccc1
 : ·, ·, 0.99, 0, 104, i, ·
#15 CCCn1cc(NC(=O)C2CC(c3cccc(Br)c3)=NO2)cn1 (centres undefined)
 : 66, -83, 0.78, 0, 105, i, -1.2
#16 O=C(Nc1cccc(F)c1)C1CCN(C(=O)c2ccc(Cl)cc2)CC1
 : 63, 9, 1, 2, 18*, i, -1.8
#17 CCCC(=O)NC1=C(C#N)C2(CCCC2)Cc2ccccc21
 : 59, -64, 0.97, -2, 104, i, -0.7
#18 COc1ccc(OC)c(/C=C2\SC(=S)N(C(C(=O)O)c3ccccc3)C2=O)c1 (centres undefined)
 : ·, ·, 1.2, ·, 102, i, ·
#19 CC(=O)Nc1cc2c(cc1NC(=O)Cn1nc(-c3ccc4c(c3)OCCO4)ccc1=O)OCCO2
 : 113, 41, 0.99, -2, 101, i, -0.8
#20 COC(=O)CCCC1=CC2=CC(=O)C(C)(OC(=O)C3CCCC3)C(=O)C2=CO1 (centres undefined)
 : ·, ·, 1.1, ·, 94, i, ·

Compound profiles, as listed above. Order of values: INS promoter inh cell count, INS promoter inh, HSV augment primary fold, PKD1 inh, RGS16-Gao HTS, HSV augment, GALR2 ag
Listed for C=CCNC(=S)N1CCN(S(=O)(=O)c2ccc(C)cc2)CC1 : ·, ·, 0.91, ·, 93, i, ·
Listed for CC(=O)Nc1ccc(C(=O)OCC(=O)NC(=O)NC2CCCCC2)cc1 : ·, ·, 0.99, -10, 108, i, -1.0
Listed for Cc1ccc(C(=O)Nc2ccc(C)c(S(=O)(=O)Nc3ccccc3Cl)c2)s1 : 80, 36, 1.2, 0, 66, i, -2.0

Following part
Values in the order: INS promoter inh cell count, INS promoter inh, HSV augment primary fold, PKD1 inh, RGS16-Gao HTS, HSV augment, GALR2 ag
#21 CCN(CC)C(C(=O)Nc1ccc2c(c1)OCO2)c1ccccc1 (centres undefined)
 : 103, 6, 0.96, -15, 100, i, -0.1
#22 Cc1ccc(SCC(=O)NCCN2C(=O)CSC2=O)cc1C
 : 87, 10, 0.88, -2, 109, i, -2.6
#23 CCCCCn1c(N2CCC(Cc3ccccc3)CC2)nc2c1c(=O)[nH]c(=O)n2C
 : ·, ·, 0.68, -10, ·, i, 0.0
#24 O=c1c(Cc2ccc(F)cc2)c(O)ccn1C1CC1
 : 109, -47, 0.93, -4, 104, i, -2.2
#25 CC(=O)N1CC=CC1(C)C(=O)NCc1cc(F)cc(C(F)(F)F)c1 (centres undefined)
 : 68, 24, 1.2, -9, 74, i, -1.6
#26 Cc1oc(-c2ccc(Cl)cc2)cc1-c1nn2c(-c3ccoc3C)nnc2s1
 : 147, 52, 0.93, 6, 92, i, -2.3
#27 CCOC(=O)C1(Cc2cccc(OC)c2)CCN(C/C=C/c2ccc(OC)cc2)CC1
 : ·, ·, 0.8, 3, 94, i, ·
#28 Cc1n[nH]c(=O)nc1NCc1ccc(Cl)cc1
 : 90, 41, 0.89, -5, 85, i, -2.4
#29 O=C(Nc1ccc(OC(F)(F)F)cc1)c1ccc2ccccc2n1
 : 124, -26, 1, -7, 100, i, ·
#30 COc1ccc2oc(=O)c(C(=O)O)cc2c1
 : 107, -20, 1.1, 1, 111, i, -2.5
#31 O=C(Cn1nc(-c2ccccc2)ccc1=O)NCCN1CCN(Cc2ccccc2)CC1
 : 160, -13, 0.89, 0, 134, i, 0.4
#32 Cc1ccc(C2CC(=O)NC(SCc3ccccc3)=C2C#N)cc1 (centres undefined)
 : 76, 51, 0.81, -11, 111, i, -0.4
#33 CC(Oc1ccc(Cl)cc1)C(=O)NCCN1C(=O)S/C(=C\c2cccnc2)C1=O (centres undefined)
 : 114, -44, 0.89, 2, 170, i, -1.8
#34 Cc1c(C(=O)NCc2ccc3c(c2)OCO3)sc2nc(-c3ccc(F)cc3)cn12
 : 45, -129, 0.94, 3, 97, i, 0.1
#35 COc1ccc2nc(N3C(=O)CC(C(C)c4ccccc4)C3=O)sc2c1 (centres undefined)
 : ·, ·, 0.86, -5, 103, i, -0.8
#36 O=C(O)c1ccc2c(c1)S(=O)(=O)N=C1CCCCCN12
 : 83, -62, 1.1, -3, 102, i, ·
#37 CCCOc1nnnn1-c1ccccc1
 : 188, -18, 0.96, -3, 115, i, -0.6
#38 Cn1c(-c2ccc(CN3CCCCC3)o2)nc2ccccc21
 : ·, ·, ·, -1, 93, ·, -2.6
#39 CC(C)(C)n1cn[nH]c1=S
 : ·, ·, 1, ·, 97, i, ·
#40 CS(=O)(=O)N1CCN(c2ccccc2NC(=O)c2cccnc2)CC1
 : 54, 68, 1, -5, 101, i, -0.3
#41 COc1cc(C)c(Cl)cc1S(=O)(=O)N1CCCC1
 : ·, ·, 1, -4, 104, i, ·
#42 Cc1cc(NC(=O)COC(=O)[C@@H](NS(=O)(=O)c2ccc(Br)cc2)C(C)C)no1
 : ·, ·, 0.96, ·, 108, i, ·
#43 COC(=O)c1cc(=O)n(-c2ccc(F)cc2)c(=Nc2ccc(F)cc2)s1
 : 107, -55, 0.62, -15, 99, i, -0.2
#44 NC(=O)c1cc(C(=O)c2ccc(Cl)cc2Cl)c[nH]1
 : ·, ·, 0.9, -5, 99, i, ·
#45 COC(=O)c1c(NC(=O)c2ccccc2[N+](=O)[O-])sc2c1CC(C)(C)NC2(C)C
 : 83, -23, 0.84, -4, 112, i, -2.2
#46 COc1ccccc1C(=O)NNC(=O)c1ccc(NC(=O)c2ccccc2)cc1
 : ·, ·, 0.9, -5, 214, i, ·
#47 CC(C)Cc1nnc(NC(=O)Cc2ccc([N+](=O)[O-])cc2)s1
 : ·, ·, 1, -14, 106, i, 0.3
#48 COCc1nnc(NC(=O)CC(c2ccccc2)c2ccccc2)s1
 : 92, -30, ·, -9, 96, ·, -2.9
#49 COc1ccc(-c2csc(NC(=S)NC(=O)c3ccccc3)n2)cc1Br
 : ·, ·, 0.95, ·, 92, i, ·
#50 CCC(=O)c1ccc(OCC(=O)OCC(=O)Nc2sccc2C(N)=O)cc1
 : 74, 55, 0.83, -11, 88, i, ·
#51 CCn1c2ccccc2c2nnc(SCC(=O)N(C)C3CCS(=O)(=O)C3)nc21 (centres undefined)
 : 111, -21, 1, 2, 85, i, 0.0
#52 CCOC(=O)C1=C(c2ccccc2)Nc2ncnn2C1c1ccc(OC)c(OC)c1OC (centres undefined)
 : 64, -43, 0.65, 3, 83, i, 0.2
#53 COc1ccc(C(=O)Nc2nc(N3C(=O)c4ccccc4C3=O)n(-c3ccccc3)n2)cc1
 : 128, -13, 0.68, -4, 91, i, -0.3
#54 COc1cc(/C=N/NC(N)=O)ccc1OC(=O)c1ccco1
 : 61, 0, 0.96, -4, 102, i, ·
#55 Cn1c(=NC(=O)CSCC(=O)N2CCCCC2)sc2ccccc21
 : 59, 24, 0.85, -8, 99, i, -2.7
#56 COc1cc(/C=N/n2cnnc2)ccc1OCCOc1ccccc1
 : 117, 0, 0.97, 1, 76, i, -0.3
#57 OCCCCCN=c1cc(-c2ccccc2)oc2ccc(Cl)cc12
 : 103, -49, 0.64, -6, 111, i, 1.1
#58 Cc1ccc(S(=O)(=O)N2CCCOC2CNC(=O)C(=O)NC2CCCCC2)cc1 (centres undefined)
 : 75, 28, 1, 6, 110, i, ·
#59 COc1cc(O)c(C(CCN2CCOCC2)c2ccc(N(C)C)cc2)c(OC)c1 (centres undefined)
 : ·, ·, 0.91, ·, 103, i, ·
#60 COc1ccc(C(=O)N2CCN(C3CCCCC3)CC2)c(OC)c1
 : 67, -243, 0.94, -5, 104, i, -2.7
#61 Cc1nc2c(sc3nc4c(cc32)COC(C)(C)C4)c(=O)n1CC(=O)NCc1ccco1
 : 55, -33, 0.53, 3, 82, i, 0.0
#62 CCOC(=O)N1CCc2c(sc(NC(=O)CN(CC)CC)c2C#N)C1
 : ·, ·, ·, ·, 106, ?, ·
#63 CCCC(CCC)c1nc2ccncc2[nH]1
 : 61, 18, 0.89, -4, 86, i, ·
#64 CCC(C)[C@H](NC(=O)NC(C)C)C(=O)O (some centres undefined)
 : 96, -21, 0.92, -1, 109, i, -0.6
#65 Fc1cccc(COc2ccccc2CNc2ccccc2)c1
 : ·, ·, 0.97, 0, 98, i, 0.2
#66 CC(=O)c1cc(C#N)c(SCc2ccccc2C#N)nc1C
 : 129, 25, 0.75, -1, 124, i, -0.9
#67 Cn1nnnc1NCc1cccc(Cl)c1
 : 89, 15, 0.84, -1, 105, i, ·
#68 Cc1ccc2nc(NC(=O)C3CCN(S(=O)(=O)c4cccs4)CC3)sc2c1
 : ·, ·, 1, 7, 98, i, 1.2
#69 Cc1ccc(S(=O)(=O)C2CS(=O)(=O)CC2O)cc1 (centres undefined)
 : 132, 23, 0.76, 1, 98, i, -2.2
#70 O=C(O)c1ccc(NCc2cccc(Br)c2)cc1
 : 96, 0, 0.94, -11, 93, i, -0.6
#71 CCOc1ccc(N(C(C)C(=O)NC(C)CC)S(C)(=O)=O)cc1 (centres undefined)
 : 84, 18, 0.73, -7, 98, i, -4.5
#72 Cc1ccc(NC(=O)CC2S/C(=N/N=C/c3ccco3)NC2=O)cc1Cl (centres undefined)
 : ·, ·, 1, 2, 99, i, ·
